gsp antagonist = gsp mutant antagonism; gsp-mutant cells, cAMP HTRF, 30 min; control for the full effect not named in the record; Potency, µM (doses to about 76.9 µM), for the others: at the top dose activity change, negative = inhibition, hits mostly inhibitors; actives 0.4% (n = 340,000); AID 624288; active = falling curve of any shape with a large fitted effect; inconclusive = falling curve, mostly with a smaller effect; inactive = flat or rising curve; cell line not stated here;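 note: intracellular cAMP measured with PDE inhibitor Ro 20-1724 present during compound exposure; potency is the fitted concentration of half-maximal effect; % is set by controls: 0 for no effect and ±100 for the full control effect; nearly all actives have a fitted effect of over 65% in size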
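Cells, 2000/well, grown 16–24 h in DMEM 10% FBS with 0.5 mg/ml G418, then compounds plus […] (300 uM addition stock), 30 min at 37C. cAMP read by HTRF (cAMP-d2 and anti-cAMP antibody-K in lysis buffer) after 30 min RT.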
Menin MLL FP FL = menin-MLL binding inhibition, fluorescein peptide. Fluorescence polarization, fluorescein-MLL peptide displacement from menin. FP activity change, % at 61.4 µM. 290,000 tested, under 10 active. AID 1766; inconclusive = falling polarisation curve, or a change in total fluorescence; inactive = total fluorescence flat and polarisation flat or rising; no compound was filed as active; the % refers to the polarisation; negative = inhibition;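 note: % of control where 0% means no effect; inhibitors lower the polarisation; unlabelled MLL peptide was the positive control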
TRPML1 blocker = inhibitors of human TRPML1 channel. Q9GZU1. TRPML1-inducible cells, Ca2+ dye fluorescence, FDSS; active compounds read low; inhibition of EC80 agonist-evoked calcium signal. activity change, negative = inhibition, % (concentration not given with the values). actives 0.02% (n = 390,000); in the data active means activity change below about -50%; inconclusive means about -30% to -50%; inactive means above about -30%;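 note: stimulus is agonist 54-4 at its EC80 concentration; % is set by controls: 0 for no effect and ±100 for the full control effect; the text of the record puts the active cut at -80%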
Target sequence (Q9GZU1 whole entry, looked up): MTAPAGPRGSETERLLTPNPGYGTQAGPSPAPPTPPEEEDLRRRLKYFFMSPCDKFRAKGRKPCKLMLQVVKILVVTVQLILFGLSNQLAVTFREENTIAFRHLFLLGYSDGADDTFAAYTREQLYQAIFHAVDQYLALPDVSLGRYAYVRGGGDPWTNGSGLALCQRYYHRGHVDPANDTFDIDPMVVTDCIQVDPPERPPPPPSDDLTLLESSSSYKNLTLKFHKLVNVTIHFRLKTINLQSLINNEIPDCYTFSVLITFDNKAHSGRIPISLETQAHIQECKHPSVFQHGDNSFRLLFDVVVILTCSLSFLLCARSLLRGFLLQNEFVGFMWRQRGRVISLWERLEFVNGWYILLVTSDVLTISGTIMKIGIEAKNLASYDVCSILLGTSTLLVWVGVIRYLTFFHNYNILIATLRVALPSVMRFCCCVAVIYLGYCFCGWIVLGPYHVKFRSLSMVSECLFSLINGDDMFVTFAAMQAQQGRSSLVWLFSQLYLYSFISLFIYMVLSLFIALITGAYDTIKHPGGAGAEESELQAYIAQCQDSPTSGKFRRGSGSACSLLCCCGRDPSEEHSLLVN
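Tet-induced TRPML1-DL cells loaded with Ca8 no-wash calcium dye were read kinetically on FDSS. Compound addition was followed by EC80 agonist 54-4 (4 uM final); inhibition was read over 110 s.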
ClpP mod = qHTS Assay for Activators of ClpP | purified B. subtilis ClpP, FRET peptide cleavage, 20 min | ATP-dependent Clp protease proteolytic subunit (Bacillus subtilis (strain 168)), P80244 | actives 1.9% (n = 340,000) | Potency, µM (titrated, usually from 57.5 µM), for inactives: at the top dose activity change, negative = active | AID 651965, 2013; active = well fitted falling curve with a large enough effect; inconclusive = small, poorly fitted or top-dose-only effect; inactive = no such curve, though single readings can be large or run the other way; note: potency is the fitted concentration of half-maximal effect; the source files actives as falling curves though it sought activators and does not explain the sign; nearly all actives have a fitted effect of over 65% in size; many hits overshoot -100%
Target sequence (P80244 whole entry, looked up): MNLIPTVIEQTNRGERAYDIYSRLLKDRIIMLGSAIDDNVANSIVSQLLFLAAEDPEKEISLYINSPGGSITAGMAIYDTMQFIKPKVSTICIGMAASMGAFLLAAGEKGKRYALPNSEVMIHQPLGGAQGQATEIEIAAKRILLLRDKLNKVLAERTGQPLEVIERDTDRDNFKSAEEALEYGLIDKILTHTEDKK
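Purified B. subtilis ClpP, 10 microg/mL final in Tris/HCl pH8 with KCl, BSA, glycerol and Tween-20, cleaved an Abz/nitrotyrosine-quenched decapeptide. Fluorescence (ex 320, em 430) was read at 0 and 20 min at room temperature. Delta was normalized to 5.8 microM ADEP and DMSO/no-enzyme controls.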
TRPML1 agonist = human mucolipin-1 channel agonism; TRPML1-expressing cells, Ca2+ dye fluorescence, FDSS; host cell line not named in the record; reference of the full effect not given here; Q9GZU1; AID 624414; actives 0.12% (n = 410,000); activation, % (concentration not given with the values); in the data active = activation above about 50%; inconclusive = about 30% to 50%; inactive = below about 30%; note: 0% is about no effect; the text of the record puts the active cut at 80%
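Tet-induced TRPML1-DL cells, 1,500 per well, cultured overnight, were loaded with a no-wash Ca2+ dye for 45–90 min. Calcium fluorescence was recorded on the FDSS for 110 s after compound addition, before the EC80 agonist (4 uM 54-4) was added.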
gsp ag = agonists of gsp mutant (McCune-Albright syndrome). gsp mutant cells, cAMP HTRF, 30 min; control for the full effect not named in the record. Potency, µM (doses to about 76.9 µM), for the others: at the highest dose activation (cAMP increase), actives largely listed as activators. actives 0.13% (n = 340,000); active = well fitted activation curve with a large enough effect; inconclusive = small, poorly fitted or top-dose-only effect, or another doubt; inactive = no such curve, though single readings can be large or run the other way; cell line not stated here;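 note: phosphodiesterase inhibitor Ro 20-1724 added with compounds to block cAMP breakdown; potency is the fitted concentration of half-maximal effect; nearly all actives have a fitted effect of over 60% in size; about a fifth of the inactives were tested at one dose only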
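Cells stably selected in G418 were plated at 2000/well, grown 16-24 hr, then given compounds in DMSO with the PDE inhibitor […] (300 uM solution added) for 30 min at 37C; cAMP was read by HTRF.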
Active calls of the source: *; ? = inconclusive; · = no result given; & = joins results of further samples; [ ] = another dose, or the depositor's remark. Hits appear at their usual frequency; any-hit rate near 2.1%.

SMILES | gsp antagonist | Menin MLL FP FL | TRPML1 blocker | ClpP mod | TRPML1 agonist | gsp ag
Cc1cc(C)c(NC(=O)c2ccc3c(c2)CCN3S(C)(=O)=O)c(C)c1 | -9% | 5.6 | 20 | -0.9% | -0.4 | -1%
Cc1cn2c(=O)cc(COc3ccccc3NC(=O)c3ccc(Cl)cc3)nc2s1 | · | · | -2 | -1.9% | -0.3 | ·
O=C(CN1C(=O)COc2ccccc21)NCCCN1CCc2ccccc2C1 | 0% | -2.3 | -5 | 0.6% | -0.2 | -38%[inhibitor]
Cc1cccc(NC(=O)CSc2nc(C3CC3)nc3ccccc23)c1 | 1% | -1.2 | 43 | · | 6.2 | 36%
COc1ccc(NC(=O)Cn2c(-c3ccccc3)cn(-c3ccc(C)cc3)c2=O)cc1 | 2% | 0.0 | 13 | 12% | 0.5 | -14%
CC(C)(C)OC(=O)N1CCC[C@@H]1C(=O)N1CCC(C(=O)O)CC1 | 0% | -2.3 | 54 | -3.4% | -0.2 | 11%
CCCCN(CC)CCCNC(=O)c1ccc(CSc2nc3ccncc3[nH]2)cc1 | 3% | -1.9 | -3 | · | 0.1 | 7%
CCOC(=O)/C(C#N)=C\C=C1C=CN(C)C=C1 | -22%[15.4 µM] | ? | 0 | -3.8% | 26 | -3%
CCN(CC)C(=O)c1sc2c(c1C)c(=O)n(-c1ccc(Cl)c(Cl)c1)c(=O)n2Cc1cc(=O)n2c(C)cccc2n1 | · | · | 5 | ? | 1.1 | ·
Cc1cccc(C(=O)Nc2ccccc2OCc2cc(=O)n3cc(C)ccc3n2)c1 | · | · | 9 | -2.9% | -0.9 | ·
Cc1ccccc1CNC(=O)C(=O)NCC(c1ccco1)S(=O)(=O)c1cccs1 (centres undefined) | · | · | 5 | -2.8% | 3.1 | ·
COc1ccc(C(=O)N/C(=C/c2ccco2)C(=O)N2CCCCCC2)cc1 | 1% | ? | 5 | 1.1% | -0.4 | -11%
Cc1cc(C)nc(/N=C(\N)Nc2cccc([N+](=O)[O-])c2)n1 | 8% | -1.1 | 12 | 5.6% | 19 | 19%[15.4 µM]
CCn1c(SCC#N)nc2c(c1=O)C1(CCCC1)Cc1ccccc1-2 | -3% | -3.5 | 23 | -19% | 0.6 | 2%
CC(=O)Nc1ccc2sc(NC(=O)CN3CCOCC3)nc2c1 | 8% | -4.0 | 30 | · | 0.6 | -39%[inhibitor]
CC(C)=CC(=O)Nc1nc2ccc([N+](=O)[O-])cc2s1 | 5% | -7.7 | -27 | · | 2.5 | -3%[15.4 µM]
O=C(CN1C(=O)C2CC=CCC2C1=O)Nc1nc2ccccc2[nH]1 (centres undefined) | 2% | 2.6 | 1 | 1.4% | -1.1 | -40%[inhibitor]
Nc1ccc2nc(COc3ccccc3)[nH]c2c1 | -11% | 1.6 | -13 | 1.2% | 0.8 | 11%
COc1ccc(CC(=O)NCc2ccccc2)cc1S(=O)(=O)N1CCOCC1 | -5% | 4.2 | 8 | 0.1% | -0.6 | -3%
Cc1ccc2nc(COC(=O)c3ccc(Cl)nc3)cc(=O)n2c1 | 0% | · | 3 | 1.0% | 0.1 | 37%[15.4 µM]
CCNC(=O)NC(=O)C(C)On1nnc2ccc(S(=O)(=O)N(CC)CC)cc21 (centres undefined) | 10% | 0.3 | 6 | -0.1% | 2.3 | 10%
CCc1ccc(CNC(=O)c2ccc3c(Cl)c4c(nc3c2)CCCC4)cc1 | · | · | -1 | 0.3% | -0.1 | ·
CC(C)(C)S(=O)(=O)N1C[C@@H]2C(=CC[C@H]3C(=O)N(c4ccccc4)C(=O)[C@@H]23)[C@@H]1CCO | 8% | · | -3 | -0.5% | -0.4 | ·
Cc1[nH]c(=O)c(C(=O)/C=C/c2ccccc2F)c2c1CCCC2 | 5% | 2.4 | 9 | 0.0% | 3.0 | -3%
CC(C)c1cnc2c(c1SCC(=O)O)c(=O)n(C)c(=O)n2C | · | · | 5 | -25% | 1.5 | ·
Cc1onc(-c2ccccc2)c1CNS(=O)(=O)c1ccccc1[N+](=O)[O-] | -13% | 7.3 | 1 | -7.6% | -0.5 | 6%[15.4 µM]
Fc1ccc(-c2cc(-c3ccccc3)c3c(n2)-c2cc(F)ccc2OC3)cc1 | · | · | -3 | ? | -0.1 | ·
Cc1cc(C)cc(N2C(=O)CC(N3CCOCC3)C2=O)c1 (centres undefined) | 10% | 2.4 | 13 | -1.7% | 1.3 | -1%
CC1CCCN(C(=O)/C(=C/c2ccco2)NC(=O)c2ccccc2)C1 (centres undefined) | 2% | 15 | 1 | · | 0.6 | -3%[15.4 µM]
CCN(CCO)C(=O)C12CCC(C)(C(=O)C1)C2(C)C (centres undefined) | -5% | -2.1 | 15 | -0.4% | -0.2 | 16%
Nc1nc(/C=C/c2ccc(F)cc2)nc(-c2ccccc2O)n1 | 0% | · | 10 | -1.4% | -0.5 | -9%
COc1cccc(CNC(=O)C2CCCN(S(=O)(=O)c3cnc[nH]3)C2)c1 (centres undefined) | 0% | -1.3 | 12 | -0.1% | -0.5 | -1%
COc1ccccc1CCNC(=O)Cn1ccc2cc(S(=O)(=O)N3CCCC3)ccc21 | -13% | -0.9 | -12 | -2.8% | 0.1 | -64%[inhibitor]
Cc1c(CNC2CCCCC2)c(C(=O)O)c(C)n1Cc1c(F)cccc1Cl | · | · | -8 | -0.3% | -0.7 | ·
CCC(=O)OCC(=O)Nc1ncc(C(F)(F)F)cc1Cl | 2% | ? | 20 | · | 0.7 | 1%[15.4 µM]
Cc1nnc(NC(=O)C2CCCN2C(=O)Nc2ccccc2)s1 (centres undefined) | 6% | -1.9 | -1 | · | 2.2 | 5%
CC(=O)Nc1ccc(NC(=O)c2ccc3c(c2)N(Cc2cccc(Cl)c2)C(=O)c2ccccc2S3(=O)=O)cc1 | · | · | -13 | -1.2% | 2.6 | ·
CC1CCC(=O)N(CCOc2ccccc2)CC1 (centres undefined) | 3% | 3.4 | -14 | 0.5% | 0.0 | 6%
COC(=O)Cn1c2ccccc2c2nc(=O)cc(C)n21 | 1% | -5.0 | 25 | · | 0.3 | 20%[15.4 µM]
CC(OC(=O)c1ccc2c(=O)n3c(nc2c1)CCCCC3)C(=O)Nc1ccc(Cl)cn1 (centres undefined) | 2% | -0.4 | -5 | · | -0.3 | 14%
O=C1CCCN1c1ccc(Br)cc1 | 0% | -0.4 | 0 | 0.7% | 0.6 | -23%
C/C(=N/NC(=O)CNC(=O)CCc1ccccc1)c1ccc(Cl)c(Cl)c1 | -19% | 1.7 | 24 | 0.6% | 2.7 | 9%
COc1cc([N+](=O)[O-])ccc1NC(=O)CN1CCc2cc(OC)c(OC)cc2C1 | ? | 0.6 | 10 | -30% | -0.4 | 15%[15.4 µM]
CN(Cc1c(C(=O)N2CCCCCCC2)nc2ccc(Cl)cn12)C1CCOC1 (centres undefined) | 10% | · | 7 | -0.6% | 0.3 | ?
COc1ccccc1CNc1cccc(C)n1 | · | · | -10 | -12% | -0.7 | 1%
CSc1nc(N2CCN(Cc3ccc4c(c3)OCO4)CC2)c2ccccc2n1 | -27% | -8.6 | 12 | -25% | 4.9 | 20%
Cc1cc(NC(=O)COC(=O)c2cc([N+](=O)[O-])ccc2N2CCOCC2)ccc1Br | -36% | · | 83 | · | -0.3 | 19%[15.4 µM]
CCOCCCNCc1ccc(OC)cc1 | 7% | -0.4 | -12 | -0.9% | 0.3 | -5%
Cc1ccc(S(=O)(=O)NCCC(=O)NC(C)CCc2ccccc2)cc1 (centres undefined) | -6% | · | 8 | · | 0.0 | 1%[15.4 µM]
CN(CC(=O)NC(=O)NCc1ccccc1)CC(=O)Nc1ccc(Cl)c(Cl)c1 | ? | · | -5 | 0.8% | -0.2 | -7%
CCOC(=O)c1[nH]c2ccccc2c1NC(=O)CCN1CCN(C(=O)OCC)CC1 | 7% | -8.2 | 2 | 22µM* | 0.2 | 10%
CCN(CC)CCn1c2c(c(SCC(=O)NCc3ccccc3)nc1=O)CCC2 | 4% | · | -20 | -5.3% | -1.0 | 8%
COC(=O)c1ccc(C23CC4(C2)[C@H](CN(C)[C@@H]4c2ccccc2)C3c2ccccc2)cc1 (some centres undefined) | 2% | -4.8&2.1 | 4 | -7.5% | 1.2 | ·
Cc1c(CCOC(=O)C23CC4CC(CC(C4)C2)C3)sc[n+]1Cc1ccccc1 | -8% | 1.4 | 2 | -0.7% | 0.1 | 21%[15.4 µM]
COc1ccc(NC(=O)C(c2cc3c(cc2[N+](=O)[O-])OCO3)N2CCN(C=O)CC2)cc1 (centres undefined) | 5% | 4.1 | 27 | -2.0% | 0.1 | -2%[15.4 µM]
Cc1ccc(F)cc1NC(=O)c1ccc(NS(=O)(=O)c2ccc(Br)s2)cc1 | -21% | 9.8 | -9 | -1.6% | -0.1 | 11%
CCN(CC)C(=O)CN1CCC(n2c(C)nc3cc(C(F)(F)F)ccc32)CC1 | -10% | 1.8 | -7 | -1.5% | 1.9 | -37%[inhibitor]
O=C(CCc1ccccc1)NCCS(=O)(=O)N1CCN(c2ccccc2)CC1 | -3% | · | 16 | · | -0.2 | 18%[15.4 µM]
CCOc1ccc(N(CC(=O)NC2CCCC2)S(=O)(=O)c2ccccc2)cc1 | -7% | -8.2 | -10 | · | 1.8 | 21%
COc1cccc(CN(C)CC(=O)NNC(=O)c2ccc(Cl)cc2)c1 | 10% | 3.2 | ? | -6.0% | 1.4 | 25%

Other compounds.
SMILES | gsp antagonist | Menin MLL FP FL | TRPML1 blocker | ClpP mod | TRPML1 agonist | gsp ag
NC(=O)C1CCN(c2nc(C3CC3)nc3c2nnn3Cc2ccccc2)CC1 | 4% | 0.6 | 12 | -8.4% | 0.2 | 15%
CCC(=O)N(C)C[C@@H]1Oc2ncc(Br)cc2C(=O)N([C@H](C)CO)C[C@H]1C | · | · | 20 | -3.3% | -0.3 | ?
CC(=O)c1sc(N/N=C/c2ccc(C(C)C)cc2)nc1C | 3% | ? | -7 | · | 2.7 | -2%[15.4 µM]
COc1ccccc1OCCC(=O)OCC(=O)Nc1ccc2c(c1)OCCO2 | 6% | · | 3 | · | -0.9 | -14%
CC(CNC(=O)c1ccc(OC2CCN(Cc3ccccn3)CC2)cc1)Oc1cccnc1 (centres undefined) | -3% | · | -5 | 3.3% | -0.1 | 11%[15.4 µM]
O=C(Nc1ccccc1C(F)(F)F)c1c(F)cccc1Cl | 7% | -1.7 | 10 | -0.5% | 3.8 | -3%
NS(=O)(=O)c1cccc(NC(=O)CSc2nnc(NC3CC3)s2)c1 | · | · | -12 | 0.7% | -0.1 | ?

High-throughput results from PubChem BioAssay.
